Six1-Eya2 blk: qHTS Assay for Inhibitors of the Six1/Eya2 Interaction; Homeobox protein SIX1 (Homo sapiens) + Protein phosphatase EYA2 (Homo sapiens), …; AlphaScreen GST-Six1/His-Eya2 binding, biochemical; stronger effect = lower value; control for the full effect not named in the record; activity change, % (test concentration not listed); 0.56% of 360,000 active; in the data active = activity change below about -65%; inconclusive = about -30% to -65%; inactive = above about -30%; also: % is scaled to controls: 0 for no effect and ±100 for the full control effect; compound concentration not given in the record
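AlphaScreen with GST-Six1 and His-Eya2 (5X mix: 250 nM and 500 nM), glutathione donor and nickel acceptor beads; buffer 50 mM Tris pH 8.0, 300 mM NaCl, 1 mM TCEP; 1 h at 37 C in the dark.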
D2 ag: Beta-Arrestin HTS for Positive Allosteric Modulators of the Human D2 Dopamine Receptor: Agonists; D(2) dopamine receptor (Homo sapiens), P14416; AID 624465, 2012; DiscoveRx PathHunter D2 beta-arrestin, luminescence, 90 min; 100% = 57 uM dopamine signal; activation, % (no concentration beside the values); 0.084% of 360,000 active; in the data active = activation above about 40%; inconclusive = about 15% to 40%; inactive = below about 15%; also: compound concentration not given in the record; the text of the record calls up to 30% inactive
Target sequence (P14416 whole entry, looked up): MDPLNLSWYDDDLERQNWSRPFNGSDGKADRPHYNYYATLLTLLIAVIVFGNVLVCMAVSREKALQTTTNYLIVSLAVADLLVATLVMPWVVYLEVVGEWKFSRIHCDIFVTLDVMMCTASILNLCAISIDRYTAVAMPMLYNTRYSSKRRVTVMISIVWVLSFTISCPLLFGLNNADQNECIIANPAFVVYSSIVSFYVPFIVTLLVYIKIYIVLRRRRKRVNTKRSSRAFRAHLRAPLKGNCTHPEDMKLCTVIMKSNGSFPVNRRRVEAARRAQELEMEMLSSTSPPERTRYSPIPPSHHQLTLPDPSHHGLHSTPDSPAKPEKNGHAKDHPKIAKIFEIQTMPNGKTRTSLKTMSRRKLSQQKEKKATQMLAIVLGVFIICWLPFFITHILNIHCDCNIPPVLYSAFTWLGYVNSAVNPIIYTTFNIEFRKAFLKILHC
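Agonist mode: compounds alone added to overnight-plated D2 PathHunter cells for 90 min at 37 C, with 57 uM final dopamine (EC100) defining full response. Beta-arrestin recruitment detected by chemiluminescent reagent, read after 1 h at ambient temperature.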
TRPML1 agonist: qHTS for Agonists of the Human Mucolipin Transient Receptor Potential 1 (TRPML1); TRPML1-expressing cells, Ca2+ dye fluorescence, FDSS; host cell line not named in the record; reference of the full effect not given here; 0.12% of 410,000 active; activation, % (no concentration beside the values); in the data active = activation above about 50%; inconclusive = about 30% to 50%; inactive = below about 30%; also: 0% is about no effect; the text of the record puts the active cut at 80%
Target sequence (Q9GZU1 whole entry, looked up): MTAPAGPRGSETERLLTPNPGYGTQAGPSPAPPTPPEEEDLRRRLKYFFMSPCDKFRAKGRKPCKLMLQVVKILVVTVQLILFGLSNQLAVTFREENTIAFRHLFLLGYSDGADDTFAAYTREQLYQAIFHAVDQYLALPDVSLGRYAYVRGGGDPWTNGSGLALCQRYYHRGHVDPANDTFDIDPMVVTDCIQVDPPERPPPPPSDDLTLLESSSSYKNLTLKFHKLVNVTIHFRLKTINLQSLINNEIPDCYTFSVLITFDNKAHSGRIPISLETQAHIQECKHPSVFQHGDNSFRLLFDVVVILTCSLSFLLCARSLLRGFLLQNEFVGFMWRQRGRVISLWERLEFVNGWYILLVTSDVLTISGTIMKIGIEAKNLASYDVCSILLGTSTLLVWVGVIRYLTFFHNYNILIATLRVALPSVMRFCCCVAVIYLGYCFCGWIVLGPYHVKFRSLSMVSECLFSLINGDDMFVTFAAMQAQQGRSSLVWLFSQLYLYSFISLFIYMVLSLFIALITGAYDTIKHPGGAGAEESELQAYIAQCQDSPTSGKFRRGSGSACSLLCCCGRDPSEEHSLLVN
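Calcium fluorescence on an FDSS kinetic reader gave the read-out. Tet-induced TRPML1-DL cells were plated overnight, dye-loaded (Ca8 with quencher, 45-90 min, room temperature, dark), then read 110 s after compound addition, and again 110 s after 4uM final 54-4 (EC80).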
PINK1 modulator: A Quantitative High throughput Screen to Identify Chemical Modulators of PINK1 Expression | PINK1 immunofluorescence, high-content cytometry, 24 h | Potency, µM (top dose mostly 76.6 µM), without a hit: at the highest dose activation (PINK1 increase), most hits filed as activators | 0.2% of 410,000 active; active = well fitted activation curve with a large enough effect; inconclusive = small, poorly fitted or top-dose-only effect; inactive = flat fitted curve, though single readings scatter; cell line not stated here;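 also: potency is read from the fitted curve at half-maximal effect; % of control where 0% means no effect; nearly all actives have a fitted effect of over 65% in size; a mitochondrial uncoupler was the plate control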
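Decision-based qHTS: stable cells, 24 h exposure to five compound concentrations, CCCP as control. Fixed cells stained for PINK1 plus nuclear, mitochondrial and cell markers, cytometer read.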
CtBP-E1A blk: qHTS Assay for Inhibitors of the CtBP/E1A Interaction | AlphaScreen GST-E1A/His-CtBP binding, 1536-well; stronger effect = lower value; control for the full effect not named in the record | activity change, % (concentration not given with the values) | 0.49% of 340,000 active | AID 651724, 2012; in the data active means activity change below about -65%; inconclusive means about -30% to -65%; inactive means above about -30%; also: % is scaled to controls: 0 for no effect and ±100 for the full control effect
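GST-E1A and His-tagged CtBP (125 nM each as 5X stock) were preincubated with pin-transferred compound for 2 h at 37 °C in the dark, then glutathione donor and nickel acceptor beads were added for 1 h before AlphaScreen reading.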
TRPML1 inh: qHTS for Inhibitors of the Human Mucolipin Transient Receptor Potential 1 (TRPML1) | Mucolipin-1 (Homo sapiens), Q9GZU1 | TRPML1-inducible cells, Ca2+ dye fluorescence, FDSS; stronger effect = lower value; inhibition of EC80 agonist-evoked calcium signal | activity change, negative = inhibition, % (no concentration beside the values) | 0.02% of 390,000 active; in the data active means activity change below about -50%; inconclusive means about -30% to -50%; inactive means above about -30%;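 also: stimulus is agonist 54-4 at its EC80 concentration; % is scaled to controls: 0 for no effect and ±100 for the full control effect; compound concentration not given in the record; the text of the record puts the active cut at -80%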
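TRPML1-DL cells, Tet-induced overnight (~16 h, 37 °C) at 1,500 cells/well, were loaded with Ca8 no-wash dye plus quencher for 45-90 min at room temperature. Compounds were pinned during FDSS kinetic reading; agonist 54-4 at EC80 (4 uM final) then added.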
An asterisk follows results filed as active; ? = inconclusive; · = no result given; & = joins results of further samples; [ ] = dose if it differs, or a comment.

Order of values: Six1-Eya2 blk	D2 ag	TRPML1 agonist	PINK1 modulator	CtBP-E1A blk	TRPML1 inh
C=C1C(O)[C@@H]2O[C@]3(CC[C@H](/C=C/C(C)[C@@H]4CC(C)=CC5(O[C@H](C[C@@](C)(O)CO)CCC5O)O4)O3)CC[C@H]2O[C@@H]1C(O)CC(C)[C@H]1OC2(CCCCO2)CCC1C (some centres not stated)
→ 23	-3.2	-1.1	1.1%	0	3
Cn1c(=O)c2c(ncn2CC(=O)OCC(=O)NC2CCCc3ccccc32)n(C)c1=O (configuration not stated)
→ 4	0.5	-0.5	3.9%[38.3 µM]	2	-7
Cc1ccc(-n2nc3c(N4CCC(C(=O)NCc5ccccc5Cl)CC4)nnc(C)c3c2C)cc1
→ ·	·	0.6	4.3%	·	10
O=C(O)COc1ccccc1/C=N/NC(=O)CSc1nnc(SCc2ccc(Cl)cc2)s1
→ 0	-1.5	-0.3	-0.3%	4	9
CC(O)Cn1cnc2c1c(=O)n(C)c(=O)n2C (configuration not stated)
→ 2	-0.9	1.5	0.9%	2	7
CCCS(=O)(=O)NC(=O)C1(C)CCN1C(=O)Cc1ccc(-c2ccccc2)cc1 (configuration not stated)
→ 8	-3.9	0.0	0.5%	-8	·
COC(=O)CSc1nccc(-c2cccs2)n1
→ 3	-7.4	-0.6	-0.3%	5	-7
CCOc1ccc(NC(=O)NNC(=O)c2ccc(CC)s2)cc1
→ 7	5.1	-0.2	-0.8%	·	-1
CCN(CC(=O)NCc1ccccn1)S(=O)(=O)c1ccc(Cl)cc1
→ 9	1.1	0.8	-1.7%	-2	59
CCOC(=O)C1=C(C)N(C[C@@H]2CC[C@@H](Cc3ccc(-c4ccccc4)cc3)O2)C(=O)NC1c1ccc(-c2ccccc2)cc1 (some centres not stated)
→ -6	-1.3	2.3	1.2%	-1	-10
CC(/C=N/n1cnnc1)=C\c1ccco1
→ -3	-2.1	0.0	-2.0%	0	-2
Cc1ccc(S(=O)(=O)CCC(=O)OCC(=O)N2CCN(S(=O)(=O)c3ccccc3)CC2)cc1
→ -4	-5.8	-0.4	0.9%	13	-16
O=CN/C=C/c1cc(O)ccc1O
→ -17	5.2	·	-0.3%	-7	·
Clc1ccc(-n2nnnc2SCc2cn3ccccc3n2)cc1
→ -8	-3.6	-0.7	-0.9%	5	9
CCCN(Cc1nnc(-c2ccccc2Cl)o1)C(=O)c1cc2ccccc2o1
→ 3	2.8	-0.4	25%	5	12
COc1ccc(CNC(=O)C2CCN(S(=O)(=O)N3CCCCC3)CC2)c(OC)c1
→ 5	5.3	-0.4	-0.9%	8	-1
CC1CN(C(=O)COC(=O)c2ccc(S(=O)(=O)N(C)C)cc2)CC(C)O1 (configuration not stated)
→ 13	-3.4	-0.2	-4.0%	4	28
O=C(c1cc2ccccc2oc1=O)N(Cc1cccs1)Cc1ccccc1Cl
→ 3	-3.2	0.5	0.7%	0	21
O=C(Cn1ncc2c1-c1ccccc1OC2)N1CCN(c2ccccn2)CC1
→ 3	-7.6	0.3	-0.8%	-23	-3
O=C(NC(Cc1ccccc1)C(=O)O)/C(=C/c1ccccc1)NC(=O)c1ccc(Br)o1 (configuration not stated)
→ 5	0.9	-0.4	-0.5%	8	-9
CN(C)c1cccc(C(=O)n2cc(C(=O)c3cc(F)ccc3O)cn2)c1
→ -4	-1.4	0.0	0.9%	0	44
CCc1noc(C)c1C(=O)Nc1nc2c(F)cc(F)cc2s1
→ -6	-3.8	1.8	?	-23	2
CCOc1ccc(S(=O)(=O)NN=C2CCN(C(C)=O)CC2)cc1
→ 7	-4.8	-0.7	0.2%	6	-3
Cc1cc(Cl)c(S(=O)(=O)Nc2ccon2)cc1OCC(=O)NC1CCCCC1
→ 1	-1.1	-0.3	0.2%	-1	-3
Cc1ccc(-c2nc3ccccc3c(=O)n2-c2c(C)n(C)n(-c3ccccc3)c2=O)cc1
→ -17	0.5	-0.2	0.0%	-4	-3
CCN(CC)c1ccc(/C=N\NC(N)=O)cc1
→ -13	-3.4	-0.6	-1.3%	-12	-6
CCc1nnc(NC(=O)CCC(=O)NCC2CCCO2)s1 (configuration not stated)
→ -15	-1.4	-0.4	2.3%	0	11
CC(C)CC(=O)Nc1cccc(NC(=O)c2ccccc2Cl)c1
→ 11	-0.3	0.1	6.8%	2	5
Cc1ccc(-n2ncc3c(N(CC(C)C)CC(C)C)ncnc32)c(C)c1
→ ·	·	0.3	25%	·	-10
CSc1ccc(CN2CCCN(C)CC2)cc1
→ -9	-1.1	-0.2	2.5%	8	31
CCOC(=O)CC(=O)CSc1ccc2nnc(-c3ccccc3)n2n1
→ -27	2.5	-0.5	-0.3%[38.3 µM]	?	12
O=C(O)CCN1C(=O)/C(=C2\C(=O)N(Cc3ccc(F)cc3)c3ccccc32)SC1=S
→ -4	7.5	-0.7	4.6%	1	-8
COc1cccc(CNC(=O)Cn2c(SCC(=O)Nc3ccc(F)cc3)nc3ccccc32)c1
→ ·	·	-0.9	3.4%	·	1
CCc1ccc(OCC(=O)c2c(O)c3ccccc3oc2=O)cc1
→ 4	-6.2	-0.4	0.7%	-18	2
CCCN1CCN(S(=O)(=O)c2ccc3c(c2)OCCO3)CC1
→ -5	1.0	-0.4&0.0	0.2%&-0.4%	0	22
COc1cc(/C=C/C(=O)OCC(=O)N2CCC(C)CC2)ccc1OCC#N
→ 2	4.4	0.0	-0.3%	3	0
O=C(/C=C/c1ccco1)NC(=S)Nc1cc(C(F)(F)F)ccc1N1CCOCC1
→ -1	-3.2	2.2	3.1%	2	20
Cc1cc(C)c(S(=O)(=O)Nc2ccc(-c3ccc(N4CCCCC4)nn3)cc2)c(C)c1
→ ·	·	0.4	-1.0%	·	-7
O=C(COC(=O)c1cccs1)NCCN1C(=O)CSC1=O
→ -7	-3.3	2.0	0.4%	-2	12
COc1ccc(C(=O)Nc2cc(C)cc(C)c2)cc1S(=O)(=O)N1CCOCC1
→ -15	-1.3	-0.4	-1.5%	-11	-13
C/C(=C\[C@@H](NP(=O)(c1ccccc1)c1ccccc1)c1ccccc1)CO[Si](c1ccccc1)(c1ccccc1)C(C)(C)C
→ -4	-2.1	0.2	?	0	8
COc1ccc(SCCN2CC[C@@H](C)CCC2=O)cc1
→ 1	-0.8	-0.7&-1.0	1.7%	3	12
O=C(COn1nnc2ccc(Cl)cc21)NC12CC3CC(CC(C3)C1)C2
→ 3	-0.6	2.2	-4.1%[38.3 µM]	0	14
O=C(O)/C=C/c1cccc2c1OCCO2
→ 0	-1.5	0.3	3.1%	6	-19
COCCOc1ccc(C(F)(F)F)cc1NC(=O)COC(=O)Cc1c[nH]c2ccccc12
→ -4	-0.4	3.1	-0.2%	-14	29
Cc1ccc(NNC(=S)Nc2ccc(C(C)C)cc2)c(C)c1
→ -24	-6.3	1.3	?	-29	-2
COc1ccc(C2C(=O)N(C3CCCCCC3)CC(=O)N2CCc2ccc(Cl)cc2)cc1OC (configuration not stated)
→ ·	·	-0.2	1.0%	·	-1
Cc1ccccc1Nc1c(-c2cccc(N(C)C)c2)nc2ccc(Br)cn12
→ ·	·	-0.7	-1.3%	·	-10
O=C(CSc1nnc(C2COc3ccccc3O2)o1)Nc1ccc(F)cc1Cl (configuration not stated)
→ 0	1.1	0.2	-1.7%	5	-21
Cc1cc(C)c2c(=O)n3c(nc2c1)C(Cc1ccc(O)cc1)NC(=O)c1cc2ccccc2cc1-3 (configuration not stated)
→ -8	-0.8	1.6	-1.2%	-7	-7

Remaining list, next part:
Order of values: Six1-Eya2 blk	D2 ag	TRPML1 agonist	PINK1 modulator	CtBP-E1A blk	TRPML1 inh
Cc1cnc(CNC(=O)c2ccc(OC3CCN(C(=O)C4CC4)CC3)cc2)cn1
→ -3	2.1	-0.4	-2.5%	0	-11
CCOc1ccc(CC2S/C(=N/c3ccccn3)NC2=O)cc1 (configuration not stated)
→ 1	0.1	-0.5	1.8%[38.3 µM]	4	4
Cc1[nH]c2ccccc2c1-c1csc(NC(=O)CN2CCOCC2)n1
→ -6	-4.6	0.0	1.0%	-12	-7
Cc1sc2nc(SCC(=O)N3CCOCC3)[nH]c(=O)c2c1C
→ 1	-4.4	-0.4	1.8%	-13	8
O=C(CN1C(=O)c2ccccc2S1(=O)=O)c1ccc(OC(F)F)cc1
→ 5	-2.3	0.0	-1.4%	3	17
O=C(NCCc1ccccc1)c1cc(-c2ccc(Cl)c(Cl)c2)on1
→ ·	·	0.1	0.1%	·	-28
O=C(NC(=S)NCCc1ccc(Cl)cc1)c1ccco1
→ 3	-1.7	4.9	8.1%	8	-3
CCOC(=O)c1c(OCCO)nn(-c2ccc(Cl)cc2)c1N
→ -4	-6.4	0.7	0.8%	1	5
COc1ccc(C(=O)Nc2ccc(C(=O)OCC(=O)c3cccc4ccccc34)cc2)cc1
→ 13	2.6	1.5	1.9%	6	-23
CCNC(=O)NC(=O)CSc1ccc2ccccc2c1
→ 1	-2.2	2.3	0.1%	-16	6
Cc1c(Cl)cccc1NC(=O)N1CCC(CN2CCOCC2)CC1
→ ·	·	0.6	3.0%	·	8
CCOC(=O)[C@]12CCC=C1N(CCC1=CCCCC1)C(=O)[C@H](CC(=O)NCc1ccccc1)C2
→ 10	·	-0.6	2.7%	-1	·
CCOC(=O)CCc1c(C)nc2c(c(C)nn2-c2ccc(C)cc2)c1C
→ -5	-1.4	1.0&0.7	0.1%&-0.4%	·	24&-7
Cc1ccc(S(=O)(=O)N2CCOCC2)cc1C(=O)OCC(=O)N1CCCCC1
→ 0	-2.0	1.9	3.7%	15	5
C=C(C)c1cccc(C(C)(C)NC(=O)Nc2cc(C)ccn2)c1
→ -6	-2.7	-0.2	21%	-4	7
CCc1ccc(CNCCSc2nnnn2C)cc1
→ 5	-0.9	-0.2	-0.8%[38.3 µM]	8	22
O=C(Nc1ccccc1-c1nnn(CC(=O)N2CCOCC2)n1)c1ccccc1F
→ 5	-1.3	1.6	1.9%	0	-2
CCOC(=O)c1cccc(NC(=O)c2cc3c(=O)n(C)c4ccccc4c3n2C)c1
→ ·	·	-1.4	0.3%	·	-11
COc1ccc(/C=C(/NC(=O)c2ccco2)C(=O)Nc2ccc(C(=O)O)cc2)cc1
→ 1	-2.2	0.0	0.4%	-11	-11
Cc1nc(N=C(N)N)nc2ccccc12
→ ?	-15	-0.6	-0.7%	-4	-13
COc1cccc(CNC(=S)Nc2cc(C)cc(C)c2)c1
→ 3	-1.0	-0.3	1.1%	1	-9

Screens: PubChem BioAssay, National Center for Advancing Translational Sciences (NCATS)

An unsorted share of the library. About 1% of those tested had a hit in this group.
